Screens: PubChem BioAssay, ICCB-Longwood Screening Facility, Harvard Medical School
CapD inh: blocks the Bacillus anthracis CapD enzyme. actives 0.23% (n = 140,000). purified CapD enzyme, fluorescence intensity read-out; stronger effect = lower value; some hits fall short of the stated cut. z-score (test concentration not listed);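 active = z-score under -4 in either of two replicates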;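 note: stock transfer was 100 nL into about 40 µL; score is relative to mean and spread of the plate; one replicate is shown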
AID504770: growth inhibitors of E. coli YBA685 in a screen for V. cholerae RctB (chromosome II replication) inhibitors; z-score (no concentration beside the values); AID 504770; E. coli YBA685 rctB-dependent plasmid, OD600 growth, 3 h; stronger effect = lower value; actives 0.27% (n = 130,000);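 active = z-score under -2 on both plates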;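 note: wells of about 30 µL received 100 nL stock; score is relative to mean and SD of the test wells; the first replicate is given; strong numbers were not always called active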
An asterisk follows results filed as active; . = no result given; & = joins results of further samples. This is a subset. The share of hits here may be higher or lower than overall.

compound	CapD inh	AID504770
Cc1c(N2C(=O)C(=O)/C(=C(/O)c3ccc(Br)cc3)C2c2cccnc2)c(=O)n(-c2ccccc2)n1C (stereo not drawn)	-1.3	-1.2
O=C(CN1CCNCC1)Nc1ccc(Cl)cc1Cl	.	0.3
COc1ccc(C(=O)Nc2nc3ccccc3[nH]2)cc1OC	0.23	0.05
Cc1ccc2c(c1)sc(=NC(=O)C1=COCCO1)n2C	.	2.3
CC(C)(C)c1cc(C(C)(C)C)n(-c2ccc(Br)cc2)n1	-0.9	1.5
CNCc1ccccc1N1CCOCC1	.	0.05
Cc1nn(CC(C)C)c(Cl)c1C(=O)NCC1COc2ccccc2O1 (stereo not drawn)	.	-0.55
Cc1cc(C(=O)CSc2c(F)c(F)c(C(=O)O)c(F)c2F)ccc1Cl	0.91	1.2

Grouped by structure: those above containing a halogen
compound	CapD inh	AID504770
Cc1c(N2C(=O)C(=O)/C(=C(/O)c3ccc(Br)cc3)C2c2cccnc2)c(=O)n(-c2ccccc2)n1C (stereo not drawn)	-1.3	-1.2
O=C(CN1CCNCC1)Nc1ccc(Cl)cc1Cl	.	0.3
CC(C)(C)c1cc(C(C)(C)C)n(-c2ccc(Br)cc2)n1	-0.9	1.5
Cc1nn(CC(C)C)c(Cl)c1C(=O)NCC1COc2ccccc2O1 (stereo not drawn)	.	-0.55
Cc1cc(C(=O)CSc2c(F)c(F)c(C(=O)O)c(F)c2F)ccc1Cl	0.91	1.2

Continued.
compound	CapD inh	AID504770
CC1(C)CC(=O)C2=C(C1)Oc1ccc(Br)cc1C2	0.8	0.5
COC(=O)C(C)(C)S(=O)(=O)c1ccc(C(F)(F)F)cn1	-0.59	-1.1
Fc1ccc(Cc2nnc(-c3ccc(F)cc3)o2)cc1	-0.78	0.05
COC(=O)c1c(OCC(=O)N(Cc2ccccc2)C(C)(C)C)cc(=O)n2c1CCCCC2	.	1.1
N#CC1=C(N)Oc2c(oc(CO)cc2=O)C12C(=O)Nc1ccccc12 (stereo not drawn)	0.34	-0.6
CCOC(=O)c1sc(N/C=C(\C#N)c2nc3cc(Cl)ccc3o2)c(C#N)c1C	.	-0.3
O=C(Nc1ccc2[nH]ccc2c1)c1cccs1	-1.4	0
Cc1ccc(C2=NS(=O)(=O)N(C)C(C(=O)N(C)c3ccccc3)=C2)cc1	-2.1	1.6

Additional records follow.
compound	CapD inh	AID504770
O=C1C2C(C(=O)N1Cc1ccc(F)cc1)C1C=CC2C12CC2 (stereo not drawn)	0.02	-0.45
COC(=O)c1sc(SC)c(S(=O)(=O)c2ccc(Cl)cc2)c1N	-0.065	.
CCOC(=O)c1ccc(Cn2c3ccc(Br)cc3c3nc4ccccc4nc32)o1	-0.05	.
COCCCn1c(-c2ccc(F)cc2)nc2c(c(=O)c3ccccc3n2C)c1=O	.	-0.3
COc1cc(C2NN=C3C4CCN(CC4)C32)cc(OC)c1OC (stereo not drawn)	-0.005	0.55
O=C(CCNS(=O)(=O)c1ccc2c(c1)OCCO2)NC1CCCc2ccccc21 (stereo not drawn)	.	-1.4
O=C(c1ccc2ncsc2c1)N1CCOCC1	3.3	-1.1
CC(C)(Oc1ccc(Cl)cc1)C(=O)Nc1ccc2nccnc2c1	9.2	0.25

Next part.
compound	CapD inh	AID504770
COCCCNc1nc(Nc2ccc(OC)c(Cl)c2)c2cnn(C)c2n1	0	-0.4
Cc1noc(C)c1C(=O)N1CC(C(N)=O)Oc2ccccc21 (stereo not drawn)	.	-0.3
CCCCOc1ccc(C(=O)NCCCCOc2ccc(C(C)(C)CC)cc2C(C)(C)CC)cc1	-0.24	.
Cc1cc(C)nc(/N=C(/N=C(\N)NC(=O)c2ccccc2)Nc2ccccc2)n1	.	0.45
Nc1cccc(NC(=O)c2ccccc2O)c1	3.7	.
CC1=C(C#N)c2nc(N)c(C#N)c(C)c2/C1=C\c1cccnc1	.	0.05
N#C/C(=C\c1cccn1-c1ccc(Cl)cc1)C(=O)O	-2.5	-0.2
COc1ccc(S(=O)(=O)CC(=O)Nc2cccc(C(F)(F)F)c2)cc1	0.47	.

Continuation:
compound	CapD inh	AID504770
FCCCOc1ccc(-c2nccc(-c3ccc(Br)cc3)n2)cc1	0.31	.
CN1CCN(C(c2ccccc2)c2ccc(Cl)cc2)CC1 (stereo not drawn)	-0.62&-0.26	.
CCOC(=O)c1ccc(NC(=O)CSc2ccc(Cl)cc2)cc1	-0.52	-1.1
COC(=O)C(O)(c1cc(C)n(CC(C)C)c1C)C(F)(F)F (stereo not drawn)	.	-0.25
CCN(CC)S(=O)(=O)c1ccc(=O)[nH]c1	.	-0.2
O=C(N/N=C/c1cccc(C(F)(F)F)c1)c1cc2c(s1)-c1ccccc1CC2	10	.
CC(C)(C)c1ccc(O)c(/C(=N/O)c2ccccc2)c1	-0.005	.
CCN(CC)N=Nc1ccc(S(=O)(=O)N=C(C)O)cc1	.	-0.05

Following part
compound	CapD inh	AID504770
CCOC(=O)c1c(Nc2ccccc2OC)sc(C(=O)c2ccccc2)c1N	-0.33	.
O=C1CSC(c2ccccc2)C(=O)N1Cc1ccc(Cl)cc1Cl (stereo not drawn)	-0.85	.
O=C(Nc1cccnc1)c1cc(-c2ccccc2)oc1C(F)(F)F	-0.37	-0.3
Cc1cc2nc3c(c(=O)n2[nH]1)CSC3	34	.
C=CCn1c(SCC(=O)N2CCCCC2)nc2sc3c(c2c1=O)CCC3	-0.33	.
CN(C)CCCN(CCCN(C)C)C(=O)C1CCN(c2ccc(C(F)(F)F)cn2)CC1	10	.
COc1ccc(S(=O)(=O)N2CCCC2c2nc3ccccc3s2)cc1 (stereo not drawn)	-0.82	.
CC(C)C(=O)Nc1nn2c(-c3ccco3)nnc2s1	0.39	0.15

The results go on:
| mol | CapD inh | AID504770 |
| --- | --- | --- |
| CCOC(=O)C(N)CSC1CCCCO1 (stereo not drawn) | 0.33 | -1.1&0.6 |
| CCN(C(=O)c1cccs1)c1nnc(-c2cccc(C)c2)s1 | . | -0.25 |
| CCOC(=O)Cc1csc(SCC(=O)NC(C)(C)C)n1 | . | 0.6 |
| Cc1onc(-c2ccccc2Cl)c1C(=O)N1CCc2ccccc2C1 | -0.55 | . |
| CCOC(=O)c1c(S(=O)(=O)N(C)Cc2ccccc2)c(C)n(C)c1C | -0.18 | -0.25 |
| Cc1cc(C)nc(N(C)c2ccc([N+](=O)[O-])cc2)n1 | -0.45 | . |
| Cc1ccc(C2OC(=O)c3ccccc32)cc1 (stereo not drawn) | -0.26 | . |
| Cc1cc(Br)ccc1N1C(=O)CC(=O)NC1=S | 1.6 | -0.05 |
| O=C(O)CNC(=O)c1ccc2c(c1)OCCO2 | -0.59 | . |
| CCCn1c(SCc2nc(N)nc(N)n2)nc2sc3c(c2c1=O)CCC3 | . | -0.2 |
| CCCCn1c2c(c(=O)n(C)c1=O)C(c1ccc(OC)cc1)C(NC(=O)c1ccccc1)C(=O)N2 (stereo not drawn) | . | -0.05 |
| CCn1c(CSCC(=O)NC(C)C)nc2cc(S(=O)(=O)N3CCCCC3)ccc21 | . | 1.7 |
| COCC(C)n1c(C)cc(C(=O)COC(=O)c2cccn2C)c1C (stereo not drawn) | . | -1.6 |
| CCN1C(=O)CC(NC2CCN(c3ccc(C(F)(F)F)cn3)CC2)C1=O (stereo not drawn) | 9 | -0.9 |
| Cc1ccc(-c2nc(=O)[nH]c3ccccc23)cc1 | . | 1 |

The results go on.
| mol | CapD inh | AID504770 |
| --- | --- | --- |
| CCOc1ccc(-n2c(N)c(S(=O)(=O)c3ccccc3)c3nc(C#N)c(C#N)nc32)cc1 | . | 0.95 |
| COc1ccc2[nH]c(C(=O)Nc3ncc(C)cc3Br)cc2c1 | 15 | -1.1 |
| CC1(C)CC(=O)C(CC2=C(O)CC(C)(C)CC2=O)C(=O)C1 | -0.04 | -0.35 |
| CCOC(=O)C(Nc1ccc2c(c1)OCCO2)c1ccccc1 (stereo not drawn) | 0.29 | -0.55 |
| CC1=C(CCN2CCN(Cc3ccccc3)CC2)C(C)(C)CCC1 | 0.34 | 0.1 |
| CCC(=O)Nc1c(OC(=O)CC)ccc2c(C)cc(=O)oc12 | 43 | -0.55 |
| CC(N)(C(=O)O)c1cccc(OCc2ccccc2F)c1 (stereo not drawn) | 0.76 | 1.6 |
| C/C(=N\NC(=O)Cc1c(C)[nH][nH]c1=O)c1ccc2ccccc2c1 | 0.53 | -0.55 |
| CCCNC(=O)Nc1ccc(OC(F)(F)F)cc1 | 0.2 | -0.2 |
| COc1cccc(CNC(=O)c2cnn3c4c(cnc23)CCCCC4)c1 | 106 | 1 |
| O=C(c1cccc(C(F)(F)F)c1)N(Cc1ccc(Cl)cc1)Cc1ccc2cc[nH]c2c1 | -0.2 | . |
| Cn1c(=O)c2c(nc(NCc3ccccc3)n2C)n(C)c1=O | 0.2 | -0.55 |
| CN1/C(=C\C=Nc2ccc(C(=O)O)cc2)C(C)(C)c2ccccc21 | -3.2* | 0.6 |
| COC(=O)c1ccc(C(NC(=O)c2cccnc2)NC(=O)c2cccnc2)cc1 | . | -0.15 |
| COc1cccc(-c2cc(C(=O)NCC3CCCO3)on2)c1 (stereo not drawn) | 14 | 0.05 |

The results go on.
| mol | CapD inh | AID504770 |
| --- | --- | --- |
| CCOC(=O)N1CCC(n2c(SCC(=O)N3CCC(C)CC3)nc3ccccc3c2=O)CC1 | 0.42 | 0.3 |
| N#Cc1sc2nc3c(cc2c1N)CCC3 | 1.9 | 0 |
| O=C(NCCc1c[nH]c2ccccc12)C1CCCCC1 | -0.15 | 0 |
| O=C1c2ccccc2S(=O)(=O)c2cc(-c3nn[nH]n3)ccc21 | . | -0.15 |
| Cc1cc(NC(=O)c2noc3c2CCc2ccccc2-3)n(-c2ccccc2)n1 | 0.27 | 0.6 |
| CC1CC(C)(C)NC(=S)N1CCC(=O)NCCN1CCCc2ccccc21 (stereo not drawn) | 0.58 | 0.65 |
| Cc1cc2nc(CSCc3ccco3)cc(=O)n2o1 | -1.3 | -1.4 |
| O=C(NC=Nc1cccnc1)c1cccc(COCC(F)(F)F)c1 | -1.4 | -1.1 |
| CCOC(=O)c1sc2nc(SCC#N)n(Cc3ccc(F)cc3)c(=O)c2c1C | -0.07 | . |
| O=S(=O)(c1ccc(Sc2nnnn2C2CC2)nc1)N1CCCCC1 | . | -0.15 |
| COCC(=O)Nc1cccc(-c2ccc(S(C)(=O)=O)nn2)c1 | . | -0.05 |
| COc1ccc(Br)c(-c2nnc(-c3ccccc3NS(=O)(=O)c3ccc(C)cc3)o2)c1 | -0.2 | . |
| O=C1CC(Sc2nnc(-c3cccc(S(=O)(=O)N4CCOCC4)c3)o2)C(=O)N1c1ccc(F)cc1 (stereo not drawn) | . | 0.15 |
| C#CC(CC)(CC)NC(=O)Nc1ccccc1 | -0.03 | 2 |
| CCC(C)NC(=O)CSc1nc2ccccc2c(=O)n1CC1COc2ccccc2O1 (stereo not drawn) | -0.48 | 1.9 |

Further compounds
| mol | CapD inh | AID504770 |
| --- | --- | --- |
| O=C(CS(=O)(=O)c1ccccc1Cl)N1CCOCC1 | -0.1 | -0.2 |
| c1ccc(Oc2cccc(CSc3nc4ccccc4o3)c2)cc1 | -0.41 | 1.2 |
| O=C(Cc1cn2ccsc2n1)N/N=C1\CC(c2ccccc2)Oc2ccccc21 (stereo not drawn) | . | 1.6 |
| COC(=O)c1ccc(N=C2SC(C(=O)Nc3cccc(Cl)c3)CC(=O)N2C)cc1 (stereo not drawn) | 0.1 | . |
| CCOC(=O)c1cc(-c2ccc(C)cc2)n(CC(=O)NCc2ccccn2)c1C | -0.89 | 2.9 |
| O=C(CN(c1cccc(C(F)(F)F)c1)S(=O)(=O)c1ccccc1)N1CCN(c2ccccc2)CC1 | -0.41 | . |
| Cc1cc(C(=O)NCc2ccc3c(c2)OCO3)c(C)o1 | -0.055 | 0.4 |
| O=C1c2ccccc2N(S(=O)(=O)c2cccs2)C(=O)c2ccccc2N1S(=O)(=O)c1cccs1 | . | 0.7 |
| O=C(Nc1ccc2c(c1)C(=O)N(C1CCCCC1)C2=O)c1ccc(Br)o1 | 48 | 0.25 |
| CC1CCC(c2nnnn2-c2cccc(Cl)c2)(N(C)C)CC1 (stereo not drawn) | -0.31 | . |
| Cc1nc(N)[nH]c(=O)c1Cc1c(F)cccc1Cl | 0.23 | . |
| CCCCn1c(CNC(=O)c2ccccc2)nc2ccccc21 | -0.62 | 2.9 |
| Cc1nc(C)c(C(=O)N/N=C/c2ccc(N(C)C)cc2)s1 | . | 0.55 |
| Nc1sc2c(c1C(=O)Nc1cccc(Cl)c1)CCCCC2 | 0.12 | 0.05 |
| O=C(O)C1=Cc2ccccc2OC1 | . | 2.2 |

Next structures
| mol | CapD inh | AID504770 |
| --- | --- | --- |
| CCOC(=O)c1cc(-c2ccc(OC)cc2)nn1CCC#N | . | -0.7 |
| COc1ccc(OCCCC(=O)Nc2ccc(S(=O)(=O)Nc3nccs3)cc2)cc1 | -0.93 | -0.5 |
| CCc1nnc(NC(=O)/C=C/c2ccccc2)s1 | 0.24 | -0.45 |
| OC(COCC1CC=CCC1)CN(Cc1ccccc1)Cc1ccccc1 (stereo not drawn) | -0.16 | -0.6 |
| O=C(COC(=O)c1cccc(O)c1O)c1ccc(Cl)cc1 | -0.45 | . |
| C=CCn1c(SC(C)C#N)nc2cc(Cl)ccc2c1=O (stereo not drawn) | . | 0.7 |
| Cc1cc(C)c2c(c1)-c1cc(C)nn1C(c1cccs1)N2 (stereo not drawn) | 50 | -0.45 |
| CC(=O)c1cc2ccccc2oc1=O | 1&0.02 | . |
| O=C1c2ccccc2CN1c1ccccc1 | . | -0.45 |
| O=C1/C(=C/c2cccnc2)CCCC/C1=C\c1cccnc1 | 0.21 | -0.75 |
| CCN(CCCNc1ncnc2nc[nH]c12)c1cccc(C)c1 | -1.4 | 2.5 |

Quoted at random: three records from the list
| mol | CapD inh | AID504770 |
| --- | --- | --- |
| CCCNC(=O)Nc1ccc(OC(F)(F)F)cc1 | 0.2 | -0.2 |
| COc1cccc(-c2cc(C(=O)NCC3CCCO3)on2)c1 (stereo not drawn) | 14 | 0.05 |
| Cc1nc(N)[nH]c(=O)c1Cc1c(F)cccc1Cl | 0.23 | . |
